# Screening data deposited in PubChem BioAssay by National Center for Advancing Translational Sciences (NCATS).
# PINK1 modulator: modulators of PINK1 expression | PINK1 immunofluorescence, high-content cytometry, 24 h | Potency, µM (doses to about 76.6 µM), inactives show top-dose activation (PINK1 increase), most hits filed as activators | actives 0.2% (n = 410,000); active = well fitted activation curve with a large enough effect; inconclusive = small, poorly fitted or top-dose-only effect; inactive = flat fitted curve, though single readings scatter; cell line not stated here;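 also: potency is read from the fitted curve at half-maximal effect; % of control where 0% means no effect; nearly all actives have a fitted effect of over 65% in size; a mitochondrial uncoupler was the plate control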
#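 A stable cell line was treated with compounds at 5 concentrations for 24 hours, with CCCP as control. PINK1 levels and mitochondrial localization were measured by immunofluorescence with mitochondrial, cell and nuclear markers after fixation, read by laser-scanning cytometry.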
# D2 ag: agonists of human D2 dopamine receptor (beta-arrestin); P14416; DiscoveRx PathHunter D2 beta-arrestin, luminescence, 90 min; 100% = 57 uM dopamine signal; activation, % (test concentration not listed); actives 0.084% (n = 360,000); in the data active = activation above about 40%; inconclusive = about 15% to 40%; inactive = below about 15%; also: compound concentration not given in the record; the text of the record calls up to 30% inactive
# Target sequence (P14416 whole entry, looked up): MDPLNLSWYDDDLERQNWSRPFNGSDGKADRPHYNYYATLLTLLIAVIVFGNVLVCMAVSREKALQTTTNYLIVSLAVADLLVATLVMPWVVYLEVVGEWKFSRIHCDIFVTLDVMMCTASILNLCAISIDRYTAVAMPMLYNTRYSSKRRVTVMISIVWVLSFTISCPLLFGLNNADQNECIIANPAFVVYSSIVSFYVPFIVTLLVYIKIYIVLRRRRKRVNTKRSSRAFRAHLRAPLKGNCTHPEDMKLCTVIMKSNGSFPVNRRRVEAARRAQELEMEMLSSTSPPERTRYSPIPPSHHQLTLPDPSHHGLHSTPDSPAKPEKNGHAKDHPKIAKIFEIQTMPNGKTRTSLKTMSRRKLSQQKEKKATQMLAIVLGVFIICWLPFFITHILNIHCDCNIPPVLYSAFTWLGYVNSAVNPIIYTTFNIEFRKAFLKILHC
#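 DiscoveRx PathHunter D2 beta-arrestin cells (2,100/well) attached overnight, then compound-stimulated 90 min at 37 C in HBSS/10 mM HEPES/0.1% Tween-20 buffer; beta-galactosidase complementation read by luminescence after 1 h at ambient temperature. Dopamine 57 uM final (EC100) as control.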
# CtBP-E1A inh: blocks the CtBP interaction with E1A; AlphaScreen GST-E1A/His-CtBP binding, 1536-well; stronger effect = lower value; control for the full effect not named in the record; activity change, % (test concentration not listed); actives 0.49% (n = 340,000); AID 651724; in the data active means activity change below about -65%; inconclusive means about -30% to -65%; inactive means above about -30%; also: % is scaled to controls: 0 for no effect and ±100 for the full control effect; compound concentration not given in the record
#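 AlphaScreen with 125 nM GST-E1A and 125 nM His-CtBP (5X stocks) in Tris pH 8.0, 300 mM NaCl, BSA, Tween 20, TCEP. Compounds preincubated 2 h at 37 deg C, then glutathione donor/nickel acceptor beads added for 1 h at 37 deg C in dark.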
# TRPML1 blocker: inhibitors of human TRPML1 channel. Q9GZU1. TRPML1-inducible cells, Ca2+ dye fluorescence, FDSS; stronger effect = lower value; inhibition of EC80 agonist-evoked calcium signal. activity change, negative = inhibition, % (test concentration not listed). actives 0.02% (n = 390,000). AID 624415; in the data active means activity change below about -50%; inconclusive means about -30% to -50%; inactive means above about -30%;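 also: stimulus is agonist 54-4 at its EC80 concentration; % is scaled to controls: 0 for no effect and ±100 for the full control effect; compound concentration not given in the record; the text of the record puts the active cut at -80%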
# Target sequence (Q9GZU1 whole entry, looked up): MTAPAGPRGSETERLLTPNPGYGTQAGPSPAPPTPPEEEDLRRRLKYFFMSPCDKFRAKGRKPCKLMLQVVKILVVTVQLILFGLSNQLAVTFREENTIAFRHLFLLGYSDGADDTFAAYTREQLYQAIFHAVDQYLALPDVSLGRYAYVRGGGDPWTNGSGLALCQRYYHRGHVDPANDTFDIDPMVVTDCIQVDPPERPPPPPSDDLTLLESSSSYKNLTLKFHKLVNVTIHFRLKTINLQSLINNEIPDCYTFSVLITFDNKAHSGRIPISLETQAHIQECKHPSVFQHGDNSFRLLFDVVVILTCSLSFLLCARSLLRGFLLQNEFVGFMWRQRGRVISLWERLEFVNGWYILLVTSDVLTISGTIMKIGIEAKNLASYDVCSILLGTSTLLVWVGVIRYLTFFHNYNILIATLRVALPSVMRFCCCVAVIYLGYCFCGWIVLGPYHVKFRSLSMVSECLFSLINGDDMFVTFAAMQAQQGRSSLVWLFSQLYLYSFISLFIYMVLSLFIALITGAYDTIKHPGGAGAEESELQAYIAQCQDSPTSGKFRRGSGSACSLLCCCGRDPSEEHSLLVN
#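 Tet-induced TRPML1-DL cells loaded with Ca8 no-wash calcium dye were read kinetically on FDSS. Compound addition was followed by EC80 agonist 54-4 (4 uM final); inhibition was read over 110 s.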
# TRPML1 agonist: agonists of human TRPML1 channel; TRPML1-expressing cells, Ca2+ dye fluorescence, FDSS; host cell line not named in the record; reference of the full effect not given here; Q9GZU1; actives 0.12% (n = 410,000); activation, % (concentration not given with the values); in the data active = activation above about 50%; inconclusive = about 30% to 50%; inactive = below about 30%; also: 0% is about no effect; the text of the record puts the active cut at 80%
#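 Kinetic FDSS Ca2+ read in Tet-induced TRPML1-DL cells (ABD Ca8 dye plus quencher, 45-90 min RT loading): baseline, then compound, then 110 s agonist window; EC80 agonist 54-4 at 4uM final added afterwards for a 110 s antagonist window.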
# Six1-Eya2 blk: Six1/Eya2 interaction inhibition; AlphaScreen GST-Six1/His-Eya2 binding, biochemical; stronger effect = lower value; control for the full effect not named in the record; Q15475+O00167; activity change, % (test concentration not listed); actives 0.56% (n = 360,000); AID 651725; in the data active = activity change below about -65%; inconclusive = about -30% to -65%; inactive = above about -30%; also: % is scaled to controls: 0 for no effect and ±100 for the full control effect; compound concentration not given in the record
#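 AlphaScreen with GST-Six1 and His-Eya2 (5X mix: 250 nM and 500 nM), glutathione donor and nickel acceptor beads; buffer 50 mM Tris pH 8.0, 300 mM NaCl, 1 mM TCEP; 1 h at 37 C in the dark.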
# * hit, by the source's call; u = inconclusive; x = not tested or not shown; [ ] = dose if it differs, or a comment. Rows are unselected. About 1% of those tested had a hit in this group.
Molecule	PINK1 modulator	D2 ag	CtBP-E1A inh	TRPML1 blocker	TRPML1 agonist	Six1-Eya2 blk
CCOC(=O)N1CCN(C(=O)c2cn(CC)c3ccc(S(=O)(=O)N4CCC(C)CC4)cc3c2=O)CC1	0.4%	-5.3	0	-25	0.2	4
c1ccc(CCNc2nc(-c3ccncc3)nc3ccccc23)cc1	1.9%	3.9	-1	6	2.3	-7
CC1CCc2c(nc3ncnn3c2N2CCN(c3ccccc3)CC2)C1 (stereo unspecified)	0.6%	1.8	-1	-2	1.1	-1
O=C(CSc1nc(-c2ccco2)cc(C(F)(F)F)n1)NCc1cccs1	3.5%	-2.7	-6	9	0.1	-25
CCN(CC)S(=O)(=O)c1ccc(N2CCCC2)c(NC(=O)C2=NN(c3ccccc3)C(=O)CC2)c1	0.7%	4.1	-18	-8	0.5	-2
COC(=O)c1c(NC(=O)C2COc3ccccc3O2)sc2c1CCN(C(=O)OC)C2 (stereo unspecified)	0.0%	-0.7	-2	0	0.3	-2
Cc1[nH]c2ccccc2c1C(=O)C(=O)NC1CC(=O)N(c2ccccc2)C1 (stereo unspecified)	-0.5%	x	x	-2	-0.7	x
CCOC(=O)N/N=C\c1cccc(OC)c1	0.7%	0.0	-5	-8	0.5	-2
CC(=O)Nc1ccc(S(=O)(=O)N2CCC(C(=O)O)CC2)cc1	0.7%	-0.6	7	14	0.0	1
Cc1ccc(S(=O)(=O)Nc2ccccc2/C=N/c2nc3ccccc3n2C)cc1	29%	-1.8	-16	7	-1.7	3
CCCOc1ccc(F)cc1-c1cc(C(=O)Nc2ccccc2)[nH]n1	3.3%	5.7	3	x	0.1	-1
CC(C)NC(=O)CCCc1ccccc1	-1.8%[38.3 µM]	-4.2	-2	-7	0.1	6
CCOC(=O)c1c(/N=C/c2cc(OC)cc([N+](=O)[O-])c2O)sc(C)c1C	1.0%	-5.9	-4	1	-0.8	-15
O=C(Nc1csnn1)OCc1ccccc1	0.1%	-0.9	25	-5	0.0	4
O=C(CSCc1ccc(Cl)cc1)N/N=C/c1ccc(OCC(=O)Nc2ccccc2)cc1	7.1%	-2.3	-6	0	0.7	-9
CC1(C)CC(=O)C2=C(C1)OC1=C(C(=O)CC(C)(C)C1)C2c1ccccc1	8.7%[38.3 µM]	-2.0	-18	-2	-0.2	-2
CCN(c1ccccc1)S(=O)(=O)c1ccc(NN)nc1	2.3%	u	x	34	0.5	0
COc1ccc(/C=N/NC(=O)Cn2cnc3ccccc3c2=O)cc1OC	-0.4%	-1.4	-5	7	-0.7	-7
COc1ccc2cc(CN(CCc3ccccc3)Cc3nnnn3Cc3ccco3)c(=O)[nH]c2c1	-1.1%	0.3	-7	-6	-0.4	-10
CC(C)(C)n1nc2c(c1NC(=O)Cc1ccc(Cl)cc1)CS(=O)(=O)C2	-0.3%	0.5	11	15	0.1	1
COc1cc2cc(CCCOC(=O)c3cccc(Br)c3)oc(=O)c2cc1OC	0.2%	-2.3	-9	-9	-0.2	1
COc1ccc2[nH]c(C(=O)N(C)Cc3ccccc3)c(C)c2c1	1.2%	-5.5	0	x	x	-9
Cc1[nH]n(-c2ccccc2)c(=O)c1/C=N/c1nn[nH]n1	-0.6%	1.4	x	-5	1.5	4
COc1ccc(-c2nnc(SC(C)C(=O)Nc3nccs3)n2Cc2ccccc2)cc1OC (stereo unspecified)	x	-0.6	-1	-8	0.1	0
Cc1ccc(NC(=S)NNC(=O)c2nnn(-c3ccccc3)c2C)cc1	1.5%	-6.2	-1	-11	0.0	-75*
Cc1ccc2[nH]c(=O)c(CN(CC3COCCO3)C(=O)Nc3ccccc3C)cc2c1 (stereo unspecified)	4.4%	-17	-18	-4	1.7	-1
COc1ccc(C)cc1NC(=O)c1nn(-c2ccccc2)cc1OC	u	-6.0	3	13	-0.2	-6
O=C1C(=O)N(C2CCN(C(=O)c3ccccc3F)CC2)CCN1Cc1ccc(F)cc1	0.0%	x	x	-6	-1.0	x
Cn1nccc1C(=O)N(CCN1CCCCC1)CC1CCCN(C2CCCC2)C1 (stereo unspecified)	-0.4%	-5.1	2	-11	1.0	-9
O=S(=O)(NC1CCCCC1)c1ccc(Cl)nc1	2.4%	-8.1	0	-22	-0.2	10

# (cont.)
# Each structure is followed by: PINK1 modulator	D2 ag	CtBP-E1A inh	TRPML1 blocker	TRPML1 agonist	Six1-Eya2 blk
O=C(OCC(=O)N1CCN(c2ccccc2)CC1)c1cccs1
    -1.2%	-7.8	2	-2	0.1	7
COc1cc(OC)cc(C(=O)Nc2ncc3c(n2)CC(C)CC3=O)c1 (stereo unspecified)
    -0.7%	-1.7	-2	-4	0.7	1
O=C(/C=C/c1ccc(Br)cc1)NC(=S)N1CCOCC1
    -1.5%	5.8	-23	16	0.7	-10
COc1ccc(CCNC(=O)C(C)SCc2ccccc2)cc1 (stereo unspecified)
    -1.9%	-2.2	10	-2	-0.1	-15
Cc1ccc(CCN2CC(C(=O)NCCc3ccccc3)CC2=O)cc1 (stereo unspecified)
    -1.7%	-2.0	x	23	3.7	1
COc1ccc(S(=O)(=O)NCc2ccccn2)cc1OC
    0.6%	-4.0	16	12	-1.2	10
COc1cccc(CNC(=O)CCc2c(C)nc3c(c(C)nn3-c3ccc(C)c(C)c3)c2C)c1
    -3.0%	x	x	-1	2.7	x
CC1CCN(c2ccc(N3C(=O)C4CCCCC4C3=O)cc2[N+](=O)[O-])CC1 (stereo unspecified)
    6.2%	1.4	-9	28	1.4	5
CC(C)=CCc1c(-c2ccc(O)cc2O)oc2cc3c(c(O)c2c1=O)C=CC(C)(C)O3
    15%	10	-9	x	x	-8
CCc1nc(SCC(=O)Nc2cc(OC)ccc2OC)c2c(C)c(C)sc2n1
    6.4%	-2.5	5	u	0.9	-3

# Among those listed so far, two have bromine:
# Each structure is followed by: PINK1 modulator	D2 ag	CtBP-E1A inh	TRPML1 blocker	TRPML1 agonist	Six1-Eya2 blk
COc1cc2cc(CCCOC(=O)c3cccc(Br)c3)oc(=O)c2cc1OC
    0.2%	-2.3	-9	-9	-0.2	1
O=C(/C=C/c1ccc(Br)cc1)NC(=S)N1CCOCC1
    -1.5%	5.8	-23	16	0.7	-10

# (more compounds)
# Each structure is followed by: PINK1 modulator	D2 ag	CtBP-E1A inh	TRPML1 blocker	TRPML1 agonist	Six1-Eya2 blk
COc1ccc(CC(=O)N2CCC(CCC(=O)Nc3ccccc3)CC2)cc1
    0.0%	-1.2	16	-11	-0.6	-7
Cc1ccc(Cc2nnc(SCC(=O)Nc3ccccc3C)[nH]c2=O)cc1
    -0.4%	4.2	3	3	0.3	20
Cc1ccc(/C=C/C(=O)NC2=NCCS2)cc1
    7.4%	-4.6	-1	50	-0.3	-6
Cc1cc(NC(=O)c2cc(-c3ccc(Cl)cc3)on2)nn1Cc1ccc(Cl)cc1
    1.9%	x	x	-11	2.4	x
CC(C)(C(=O)N1CCC1(C)C(=O)NS(=O)(=O)c1cccc(C#N)c1)c1ccccc1 (stereo unspecified)
    1.1%	2.7	0	x	-0.9	1
O[C@@H]1C2CCCC1[C@]1(O)CCCCC1C2 (stereo partly specified)
    -1.3%	1.5	-3	5	0.7	10
O=C(N/N=C\c1cc(Br)ccc1O)c1ccc(S(=O)(=O)N2CCCCC2)cc1
    3.3%	-4.2	-19	3	4.0	-20
CC(C)C(NC(=O)/C(=C\c1ccco1)NC(=O)c1ccco1)C(=O)O (stereo unspecified)
    0.1%	-5.2	3	-1	0.8	-17
CCN(CC)CCN1C(=O)C(=O)/C(=C(/O)c2c(C)[nH]c(C(=O)OC)c2C)C1c1ccco1 (stereo unspecified)
    -4.3%[38.3 µM]	1.2	1	17	-0.6	-3
O=C(/C=C/c1ccccc1F)c1ccoc1
    0.2%	0.5	2	-8	-1.3	-2
COc1ccc(OC)c(CNS(=O)(=O)c2cc(CN3C(=O)c4cccnc4C3=O)ccc2OC)c1
    -0.5%	-11	-6	24	-0.5	-2
CC1CCCN(C(=O)Cn2c(=O)oc3ccccc32)C1 (stereo unspecified)
    0.0%	-3.1	5	-4	5.8	2
Cc1ccc2ncc(C(=O)c3ccc(C)c(C)c3)c(S(=O)(=O)c3ccc(F)cc3)c2c1
    2.8%	x	x	2	1.2	x
Cc1cc(C)n(-c2cc(N3CCN(C(=O)c4ccc(C(C)(C)C)cc4)CC3)ccc2[N+](=O)[O-])n1
    0.6%	-3.4	-21	15	1.4	-22
COc1cccc(C2CC(c3ccccc3OC)n3ncnc3N2)c1 (stereo unspecified)
    9.0%	-1.8	4	-7	0.5	-2
COc1ccc(C(=O)CCC(=O)N2CCN(c3ccc([N+](=O)[O-])cc3)CC2)cc1
    0.0%	11	x	-3	0.9	3
COc1ccc(CNC(=O)C(C)N(Cc2ccco2)C(=O)c2snc(C(N)=O)c2N)cc1 (stereo unspecified)
    5.2%[38.3 µM]	-5.6	0	-10	-0.3	-3
COc1cc(CNc2ccc(N3CCCC3)cc2)cc(Cl)c1OC
    7.3%	-1.2	u	-8	0.0	u
Cc1ccc(C(=O)O)cc1NC(=S)NC(=O)c1ccc(COc2ccccc2)cc1
    0.1%	2.8	1	-3	-0.4	0
Cc1cccc(NC(=O)CSC2=Nc3ccccc3C3=NC(CCC(=O)NCc4ccc(F)cc4)C(=O)N23)c1 (stereo unspecified)
    -1.3%	x	x	-4	0.9	x
Cc1ccc(-c2noc(CN(C(=O)COc3cc(C)cc(C)c3C)C(C)C)n2)cc1
    3.2%	x	x	10	0.6	x
O=C(COC(=O)Cc1c[nH]c2ccccc12)NCCc1ccccc1
    0.7%	-0.1	6	20	-0.6	-5
O=C(COC(=O)c1ccc(O)cc1)Nc1ccccc1[N+](=O)[O-]
    6.6%	9.4	0	-21	-0.5	-9
Cc1cc(C)n(-c2nnc(SCC(=O)NC3CCCC3)c3ccccc23)n1
    4.6%	1.1	-1	-2	2.1	-5
CCOC(=O)[C@@H]1[C@H]2COc3ccccc3[C@H]2N2C(=O)N(c3ccc(Br)cc3)C(=O)[C@]12C
    2.1%	-6.6	6	-8	-0.4	1

# As entered above.
# For D2 ag, O=C(COC(=O)c1ccc(O)cc1)Nc1ccccc1[N+](=O)[O-] is entered as 9.4
# For Six1-Eya2 blk, O=C(COC(=O)Cc1c[nH]c2ccccc12)NCCc1ccccc1 is entered as -5
# For TRPML1 blocker, CCOC(=O)[C@@H]1[C@H]2COc3ccccc3[C@H]2N2C(=O)N(c3ccc(Br)cc3)C(=O)[C@]12C is entered as -8
# For TRPML1 agonist, Cc1ccc(-c2noc(CN(C(=O)COc3cc(C)cc(C)c3C)C(C)C)n2)cc1 is entered as 0.6
